Assay outcomes: PubChem, several laboratories
HSV augment: HSV replication enhancement | HSV replication augmentation in cells, fold increase | maximum fold increase | 220,000 tested, 0.005% active | AID 1956;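 active = peak rise of 1.5-fold or more in the series; tested in PC3 cells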;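 note: first round at 10 µM; read as green reporter fluorescence; hits show the peak of a series up to 25 µM; 1 = signal of infected wells without compound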
PKD1 kinase inh: blocks activity of human protein kinase D1; PKD1 kinase fluorescence polarization assay; Q15139; 200,000 tested, 0.056% active; inhibition, %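 (about 10 µM by stock and volumes)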;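 active = inhibition of 50% or more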;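 note: controls were vehicle for no effect and a reference inhibitor for full effect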
Insulin prom inh: TRM-6 insulin promoter activity inhibition; TRM-6 cells (human fetal islet line), insulin promoter-eGFP reporter, imaging; reporter expression induced with tamoxifen; inhibition, % at 2 µM; 130,000 tested, 0.9% active;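 active = inhibition above the mean plus 3 SD, with well images judged a real hit on visual review, cut at about 60% in these data, passing the limit was not always enough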
RGS16-Gao: modulates binding between human RGS16 and Galphao; binding response (% of control), % at 10 µM; AID 1441; 220,000 tested, 0.38% active; bead-based flow cytometry RGS16-Galphao binding, fluorescence; actives lie on both sides; O15492+P09471;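 active = below 25% or above 175%, edge rows of some plates excepted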;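 note: Galphao activated by GDP with aluminum fluoride before binding; 100% = wells without compound and 0% = beads without RGS; some results beyond the cut were filed as inactive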
Target sequence (O15492 whole entry, looked up): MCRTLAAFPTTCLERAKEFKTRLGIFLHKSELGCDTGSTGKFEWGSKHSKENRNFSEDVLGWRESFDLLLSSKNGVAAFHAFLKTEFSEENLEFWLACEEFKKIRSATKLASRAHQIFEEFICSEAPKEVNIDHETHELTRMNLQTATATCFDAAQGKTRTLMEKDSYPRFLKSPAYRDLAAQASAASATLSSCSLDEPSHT
Target sequence (P09471 whole entry, looked up): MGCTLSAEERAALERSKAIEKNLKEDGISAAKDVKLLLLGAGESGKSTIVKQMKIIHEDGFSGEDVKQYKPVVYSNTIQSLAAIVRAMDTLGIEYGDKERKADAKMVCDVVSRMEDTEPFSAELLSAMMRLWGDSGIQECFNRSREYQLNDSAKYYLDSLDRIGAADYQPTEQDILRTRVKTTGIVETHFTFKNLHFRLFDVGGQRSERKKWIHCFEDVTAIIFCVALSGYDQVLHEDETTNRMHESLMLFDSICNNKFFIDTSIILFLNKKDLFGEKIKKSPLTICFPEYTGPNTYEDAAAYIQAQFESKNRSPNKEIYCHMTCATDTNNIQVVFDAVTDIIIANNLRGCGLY
GALR2 ag: agonists of human galanin receptor 2 (GALR2) | O43603 | GALR2-expressing cells, agonist activation read-out | activation, %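 (tested at 5 µM)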 | 140,000 tested, 0.48% active | AID 803;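 active = above mean plus 3 SD of all compounds, about 5% in these data, not always enough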;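 note: 0% = vehicle buffer wells and 100% = reference agonist at full effect; tested in CHO reporter cells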
Target sequence (O43603 whole entry, looked up): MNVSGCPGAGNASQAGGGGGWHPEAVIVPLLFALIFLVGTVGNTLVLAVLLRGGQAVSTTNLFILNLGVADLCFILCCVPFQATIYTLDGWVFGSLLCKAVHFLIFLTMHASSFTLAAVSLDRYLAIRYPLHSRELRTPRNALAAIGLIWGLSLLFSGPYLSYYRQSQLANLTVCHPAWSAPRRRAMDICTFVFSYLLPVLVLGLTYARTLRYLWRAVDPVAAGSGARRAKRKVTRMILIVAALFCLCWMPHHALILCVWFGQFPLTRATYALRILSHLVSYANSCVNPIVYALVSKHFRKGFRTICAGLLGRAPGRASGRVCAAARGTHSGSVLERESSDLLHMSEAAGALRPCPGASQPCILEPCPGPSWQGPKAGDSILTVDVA
Insulin prom inh cell count: recorded beside Insulin prom inh, whose call it bears; normalized cell count, %; measured here: cell count, toxicity; reference of the scale not given here;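 cells exposed to compound for 48 h; stained nuclei by imaging scaled within each plate; lower means fewer cells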
HSV augment primary fold: also measured in HSV augment; calls as there; fold increase; compound at 10 µM; measured here: primary screen fold increase 10 uM; tested in PC3 cells;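 GFP signal in the first replicate; 1 = infected wells without compound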
* marks the source's active call; other numbers are inactive results; i = inactive; . = not tested or not shown; & = joins results of further samples; [ ] = another dose, or the depositor's remark.

SMILES | HSV augment | HSV augment primary fold | PKD1 kinase inh | Insulin prom inh | Insulin prom inh cell count | RGS16-Gao | GALR2 ag
CC(=O)Nc1ccc(C(=O)OCC(=O)N(C)C2CCCCC2)cc1 | i | 1.1 | 0 | . | . | 100 | .
N#Cc1cc2c(nc1SCC(O)CS(=O)(=O)Cc1ccccc1)CCCC2 (centres undefined) | i | 0.81 | -2 | -25 | 95 | 100 | -0.3
O=C(c1ccccc1Oc1ccc(C(F)(F)F)cc1[N+](=O)[O-])N1CCOCC1 | i | 0.97 | -6 | -34 | 156 | 102 | -0.4
COc1cccc(N(C(=O)c2nc3nccc(C)n3n2)c2nc3ccccc3s2)c1 | i | 1.1 | -8 | . | . | 139 | -0.5
CCCCn1c(=O)c(Cc2ccccc2)c(O)c2ccccc21 | . | . | -14 | . | . | 102 | -1.3
Cn1ncc([N+](=O)[O-])c1C(=O)NCc1ccccc1 | i | 1.1 | . | . | . | 97 | .
CCOc1ccc(OCC)c(NC(=O)Nc2ccc3c(c2)N(C)C(=O)CS3)c1 | i | 0.72 | -2 | . | . | 106 | 1.9
CC(=O)Nc1ccc(NC(=O)c2ccc([N+](=O)[O-])cc2Cl)cc1 | i | 0.94 | 5 | 33 | 158 | 109 | .
CCn1c(SCC(=O)c2cc(OC)ccc2OC)nnc1C(C)C | i | 1 | -7 | -33 | 51 | 105 | -1.3
Cc1ccc(-c2c(C)n([O-])c3c([n+]2=O)CCC3)cc1 | i | 0.99 | -6 | -10 | 126 | 110 | 0.3
CC(=O)NC(O)C(=O)c1ccco1 (centres undefined) | i | 0.89 | -4 | . | . | 98 | -0.6
CCN1CCC[C@H]1CNC(=O)c1c(O)c(Cl)cc(Cl)c1OC | i | 0.76&0.99 | . | . | . | 99 | .
Cc1ccc(N(C(=O)c2ccc(S(=O)(=O)N3CCOCC3)cc2)C2C=CS(=O)(=O)C2)cc1C (centres undefined) | i | 0.97 | -4 | -6 | 134 | 101 | .
CC(C)CC(=O)N/N=C/c1c(N)n(C)c(=O)n(C)c1=O | i | 1.1 | . | . | . | 117 | .
CCCCC(=O)NC1(C(F)(F)F)C(=O)N(Cc2ccco2)C(C)=C1C(=O)OC (centres undefined) | i | 1 | 0 | -351 | 17 | 101 | -2.5
COc1ccc(Cc2nc3ccccc3n2C)cc1 | i | 0.97 | -5 | . | . | 100 | .
COc1ccc(CCNC(=O)c2cnn3c(C(F)F)cc(C)nc23)cc1OC | i | 0.88 | -11 | . | . | 106 | -2.6
Nc1nnc(-c2cccnc2)s1 | i | 0.87&1.1 | -13 | 50 | 85 | 105&89 | -2.1
CCOC(=O)C1CCN(C(=O)COC(=O)c2cccc(F)c2)CC1 | i | 1 | 2 | -17 | 92 | 104 | .
O=C(CNC(=O)c1cccs1)OCC(=O)c1ccccc1 | i | 1 | -10 | . | . | 100 | -2.3
C(=N\Nc1nc(Nc2ccccc2)nc(Nc2ccccc2)n1)/c1cccnc1 | i | 0.79 | 3 | -22 | 65 | 101 | .
Cc1nn(C)c(C)c1CNC(=O)c1nn2c(c1Cl)NC(c1cccs1)CC2C(F)(F)F (centres undefined) | i | 0.92 | -6 | -28 | 198 | 97 | 0.8
COc1ccc(C2=NN(c3ccccc3)C(c3cn(CCC(=O)O)nc3-c3ccccc3)C2)cc1 (centres undefined) | i | 0.99 | -4 | . | . | 98 | .
CC(NCc1cccs1)C(=O)NC1CCCCC1 (centres undefined) | i | 0.84 | -3 | 33 | 123 | 107 | .
C/C(CC(=O)Nc1cccc(C(F)(F)F)c1)=N\NC(=O)C1CCCCC1 | i | 0.9 | 1 | . | . | 59 | .

More entries.
SMILES | HSV augment | HSV augment primary fold | PKD1 kinase inh | Insulin prom inh | Insulin prom inh cell count | RGS16-Gao | GALR2 ag
O=C(NCC1COc2ccccc2O1)c1cc2ccccc2o1 (centres undefined) | i | 0.92 | -2 | 0 | 127 | 93 | -1.7
COc1ccc(/C=C/C(=O)C2(O)CCCCC2)cc1OC | i | 0.81 | 5 | . | . | 102 | .
Cc1ccc(C(C)C)c(OCCN(C)C)c1 | i | 0.95 | 1 | 57 | 78 | 97 | 0.7
CCOC(=O)C1CCN(C(=O)CN(c2cc(OC)ccc2OC)S(=O)(=O)c2ccccc2)CC1 | i | 1 | 16 | . | . | 100 | -1.4
Cc1ccc(C)c(OCC(=O)O/N=C(\N)c2cccnc2)c1 | i | 1 | . | . | . | 100 | .
CCC(=O)N(C)CCc1cc2c(c(OC)c1/C=N/NC(=O)c1ccccc1O)OCO2 | i | 1 | 2 | 29 | 57 | 139 | -1.6
CN1CCN(CCCNC(=O)Cn2ncc3c4ccccc4n(C)c3c2=O)CC1 | i | 1.1 | -8 | . | . | 104 | -1.3
CCOC(=O)c1nnc(-c2ccc(C)cc2)nc1Sc1ccccc1Cl | i | 0.89 | 3 | . | . | 102 | -2.6
O=C(NCCN1CCN(Cc2ccccc2)CC1)c1cc2c(=O)[nH]c3ccccc3c2s1 | i | 0.75 | 5 | 14 | 115 | 95 | -1.7
CN(C)/C=C/C(=O)c1cnc(-c2ccccc2)s1 | i | 0.96 | -8 | 36 | 122 | 109 | .
CC(C)Oc1cc(NC(=O)CSCC(=O)Nc2cccc(C(F)(F)F)c2)c(Cl)cc1Cl | i | 0.78 | -3 | -38 | 73 | 105 | -0.4
COc1ccc(C2=[N+](C)CCn3cccc32)c(OC)c1 | i | 1.1 | -6 | -8 | 97 | 205*[activator] | -1.5
Cc1nn2c(NCCCn3ccnc3)cc(C(C)C)nc2c1-c1ccccc1 | i | 0.73 | . | . | . | 100 | .
COc1ccc2c(c1)C(c1cccs1)=NNC(c1ccncc1)=N2 | i | 0.95 | -5 | . | . | 103 | .
c1cc2c(cc1C1CCCCC1)c1c3n2CCCNC3CCC1 (centres undefined) | i | 0.56 | 4 | -67 | 99 | 61 | 2.3
C=CCNC(=O)CSc1ccc(Cl)cc1 | i | 0.99 | -9 | -24 | 209 | 105 | 0.1
COc1ccc(C(=O)COC(=O)C(CC(C)C)N2C(=O)c3ccccc3C2=O)cc1 (centres undefined) | i | 0.89 | -3 | -3 | 74 | 104 | 1.3
CN(C1CCCC1)C1CCN(C(=O)CNC(=O)/C=C/c2cccc(C(F)(F)F)c2)CC1 | i | 0.99 | -3 | 47 | 124 | 97 | .
Cc1ccccc1C1=NC(C(F)(F)F)(C(F)(F)F)c2c(n(-c3ccc(F)cc3)c(=O)[nH]c2=O)N1 | i | 0.99 | -6 | -43 | 102 | 103 | -0.2
COc1ccc(OC)c(S(=O)(=O)Nc2ccccc2C(F)(F)F)c1 | i | 0.95 | -10 | -10 | 202 | 93 | -2.7
CCN1CCCC1CNC(=O)c1cc2c(=O)n(C)c3ccccc3c2n1C (centres undefined) | i | 0.95 | 4 | . | . | 99 | -0.3
COc1ccccc1N1CN(Cc2ccccc2)CNC1=S | i | 0.96 | . | . | . | 94 | .
COc1ccc(C2Oc3ccccc3N2C(C)=O)cc1 (centres undefined) | i | 0.8 | 6 | . | . | 100 | -1.5
Cn1cc(CN2CCC(C(O)c3cccs3)CC2)c(-c2cccc(Cl)c2)n1 (centres undefined) | i | 0.9 | 3 | . | . | 103 | .
COc1ccccc1-n1c(N)c(C(N)=O)sc1=S | i | 0.9 | 3 | . | . | 100 | 0.0

15 of the compounds above, as a markdown table.
| molecule | HSV augment | HSV augment primary fold | PKD1 kinase inh | Insulin prom inh | Insulin prom inh cell count | RGS16-Gao | GALR2 ag |
| --- | --- | --- | --- | --- | --- | --- | --- |
| CCC(=O)N(C)CCc1cc2c(c(OC)c1/C=N/NC(=O)c1ccccc1O)OCO2 | i | 1 | 2 | 29 | 57 | 139 | -1.6 |
| CN1CCN(CCCNC(=O)Cn2ncc3c4ccccc4n(C)c3c2=O)CC1 | i | 1.1 | -8 | . | . | 104 | -1.3 |
| CCOC(=O)c1nnc(-c2ccc(C)cc2)nc1Sc1ccccc1Cl | i | 0.89 | 3 | . | . | 102 | -2.6 |
| O=C(NCCN1CCN(Cc2ccccc2)CC1)c1cc2c(=O)[nH]c3ccccc3c2s1 | i | 0.75 | 5 | 14 | 115 | 95 | -1.7 |
| CN(C)/C=C/C(=O)c1cnc(-c2ccccc2)s1 | i | 0.96 | -8 | 36 | 122 | 109 | . |
| CC(C)Oc1cc(NC(=O)CSCC(=O)Nc2cccc(C(F)(F)F)c2)c(Cl)cc1Cl | i | 0.78 | -3 | -38 | 73 | 105 | -0.4 |
| COc1ccc(C2=[N+](C)CCn3cccc32)c(OC)c1 | i | 1.1 | -6 | -8 | 97 | 205*[activator] | -1.5 |
| Cc1nn2c(NCCCn3ccnc3)cc(C(C)C)nc2c1-c1ccccc1 | i | 0.73 | . | . | . | 100 | . |
| COc1ccc2c(c1)C(c1cccs1)=NNC(c1ccncc1)=N2 | i | 0.95 | -5 | . | . | 103 | . |
| c1cc2c(cc1C1CCCCC1)c1c3n2CCCNC3CCC1 (centres undefined) | i | 0.56 | 4 | -67 | 99 | 61 | 2.3 |
| C=CCNC(=O)CSc1ccc(Cl)cc1 | i | 0.99 | -9 | -24 | 209 | 105 | 0.1 |
| COc1ccc(C(=O)COC(=O)C(CC(C)C)N2C(=O)c3ccccc3C2=O)cc1 (centres undefined) | i | 0.89 | -3 | -3 | 74 | 104 | 1.3 |
| CN(C1CCCC1)C1CCN(C(=O)CNC(=O)/C=C/c2cccc(C(F)(F)F)c2)CC1 | i | 0.99 | -3 | 47 | 124 | 97 | . |
| Cc1ccccc1C1=NC(C(F)(F)F)(C(F)(F)F)c2c(n(-c3ccc(F)cc3)c(=O)[nH]c2=O)N1 | i | 0.99 | -6 | -43 | 102 | 103 | -0.2 |
| COc1ccc(OC)c(S(=O)(=O)Nc2ccccc2C(F)(F)F)c1 | i | 0.95 | -10 | -10 | 202 | 93 | -2.7 |

Additional entries
SMILES | HSV augment | HSV augment primary fold | PKD1 kinase inh | Insulin prom inh | Insulin prom inh cell count | RGS16-Gao | GALR2 ag
Cc1nn(-c2ccccc2)c2sc(C(=O)NNC(=O)COc3ccccc3)cc12 | i | 1 | -4 | 4 | 68 | 107 | 0.4
COc1ccc(OC)c(NC(=O)CC(NCCC2=CCCCC2)C(=O)O)c1 (centres undefined) | i | 1.1 | -3 | -100 | 87 | 102 | -2.1
CCn1c(COc2ccc(C)cc2)nnc1SCC(=O)NCc1ccco1 | i | 1 | 1 | . | . | 107 | .
CCn1c(SCC(=O)NCC(=O)Nc2ccc(F)cc2)nnc1-c1ccncc1 | i | 1 | 2 | -8 | 153 | 105 | -1.0
Cc1ccc(S(=O)(=O)N(CC2CO2)c2ccccc2[N+](=O)[O-])cc1 (centres undefined) | i | 1.1 | -5 | . | . | 10 | .
CCOC(=O)Cn1nc(C)n(-c2cccc(Cl)c2)c1=O | i | 0.86 | 6 | . | . | 101 | .
CC1CC(C)(C)NC(=S)N1CCC(=O)N1CCN(Cc2ccccc2)CC1 (centres undefined) | i | 0.94 | 1 | 47 | 81 | 149 | .
CSCCC(NC(=O)OC(C)(C)C)C(=O)Oc1ccc2c(=O)c(-c3ccc4c(c3)OCCO4)coc2c1 (centres undefined) | i | 0.99 | -13 | -32 | 141 | 93 | -0.8
CN(C)c1ccc(NC(=S)N(CCc2ccccc2)C2CC(=O)N(c3c(Cl)cccc3Cl)C2=O)cc1 (centres undefined) | i | 1.2 | -9 | 29 | 81 | 110 | -1.9
O=C(COc1ccccc1F)Nc1cc(S(=O)(=O)N2CCOCC2)ccc1N1CCOCC1 | i | 0.9 | 0 | . | . | 93 | .
COc1ccc(NC(=O)N2CCC(c3ccccc3)C2)c(OC)c1 (centres undefined) | i | 0.94 | 5 | . | . | 103 | -0.6
CC(=O)Nc1ccc2nc(NC(=O)CCc3ccccc3)sc2c1 | i | 1.1 | 9 | . | . | 100 | .
COc1ccc(-n2nnnc2SC(C)C(=O)NCC(=O)Nc2ccc(F)c(F)c2F)cc1 (centres undefined) | i | 1 | -4 | -41 | 104 | 101 | -1.0
CCn1c(SCc2nc3ccccc3c(=O)[nH]2)nnc1-c1cccnc1 | i | 0.82 | -2 | -68 | 144 | 94 | -0.2
CCN(CC)CCNC(=O)c1ccc2c(c1NCCO)C(=O)c1ccccc1C2=O | i | 0.54 | . | . | . | 98 | .
CN1CCN(c2ccc(S(=O)(=O)N3CCCCC3)cc2NC(=O)c2ccc(F)cc2F)CC1 | i | 0.66 | 3 | 21 | 126 | 107 | 1.6
Nn1c(SCc2ccccc2)nnc1C1CCCCC1 | i | 0.99 | . | . | . | 104 | .
CC(C)NCC(O)COc1ccc(CC(N)=O)cc1 (centres undefined) | i | 0.73 | -21 | 18 | 100 | 100 | -1.4
CC1=CC(C)(C)N(C(=O)CCl)c2cc(C)ccc21 | i | 1 | -5 | . | . | 96 | .
Cc1ccnc2nc(C(=O)Nc3ccc(N4CCOCC4)cc3)nn12 | i | 0.93 | -6 | 46 | 54 | 100 | -2.8
O=C(Cn1c(=O)oc2ccccc21)Nc1nc(-c2ccc(Br)cc2)cs1 | i | 0.95 | -1 | . | . | 96 | -1.1
